# Source: PubChem
# HNF4A DNA FP: change in binding of human HNF4A to DNA, primary screen, biochemical, fluorescence polarization, FITC-DNA; 1 h; hit rate 0.3% among 360,000; activity change, % at 10 µM; AID 1224865, 2016; Hepatocyte nuclear factor 4-alpha (Homo sapiens), P41235; in the data active = activity change above about 30%, passing the limit was not always enough;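 note: controls were the assay level and a saturating level of protein; the project sought stronger binding though the title names inhibitors; some compounds called inactive have numbers as strong as hits; positive values seem to mean higher polarization but the record does not say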
# B2AR ag: beta2AR agonists driving receptor internalization, primary screen, cell-based, FAP fluorogen, flow cytometry; Am2.2-beta2AR cells; reference of the scale not given here; Beta-2 adrenergic receptor (Homo sapiens), P07550; hit rate 0.43% among 340,000; response, % (no concentration beside the values);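 active = response above a set limit, near 3 SD of response in nonfluorescent compounds, cut at about 42% in these data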;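 note: stock transfer was 100 nL into about 11 µL; a reference agonist was the positive control; negative values mostly stem from fluorescent compounds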
# Target sequence (P07550 whole entry, looked up): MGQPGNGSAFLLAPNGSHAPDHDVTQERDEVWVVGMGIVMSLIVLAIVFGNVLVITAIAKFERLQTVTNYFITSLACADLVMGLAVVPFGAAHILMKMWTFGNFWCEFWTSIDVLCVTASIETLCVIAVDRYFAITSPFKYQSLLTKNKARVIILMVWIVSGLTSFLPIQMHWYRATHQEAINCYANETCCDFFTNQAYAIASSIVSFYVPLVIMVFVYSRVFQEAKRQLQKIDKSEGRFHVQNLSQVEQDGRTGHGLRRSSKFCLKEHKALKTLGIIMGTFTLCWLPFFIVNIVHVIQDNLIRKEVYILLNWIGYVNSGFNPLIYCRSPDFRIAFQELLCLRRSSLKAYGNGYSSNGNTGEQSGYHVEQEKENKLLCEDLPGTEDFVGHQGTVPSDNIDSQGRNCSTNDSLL
# Ecoli growth: E. coli growth inhibition, primary screen, OD600; hit rate 0.21% among 330,000; AID 1053175, 2014; OD600 absorbance (test concentration not listed); Escherichia coli growth, 23 h; active compounds read low;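 active = OD600 absorbance below the run mean of sample wells minus 3.6 SD, in any replicate, cut at about 0.56 in these data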;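 note: stock transfer was 300 nL into about 60 µL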
# FGF22 binding: binders of human FGF22 protein, primary screen, FGF22 synaptogenesis inhibitor project, biophysical, thermal shift, single point. hit rate 1.5% among 340,000. recombinant FGF22 thermal shift, SYPRO orange fluorescence; percent of sucrose octasulfate shift, DMSO zero. AID 651658, 2012. Fibroblast growth factor 22 (Homo sapiens), Q9HCT0. calls only at 9.99 µM;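 active = melting point raised past a set limit in the mean and every replicate; three in four hits are not shown here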
# Target sequence (Q9HCT0 whole entry, looked up): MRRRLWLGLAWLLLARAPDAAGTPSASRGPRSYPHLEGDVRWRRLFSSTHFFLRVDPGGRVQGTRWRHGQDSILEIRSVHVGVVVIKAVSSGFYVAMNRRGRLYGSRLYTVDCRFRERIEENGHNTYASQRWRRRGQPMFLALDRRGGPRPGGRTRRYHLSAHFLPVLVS
# UCH37 DUB inh: inhibitors of human UCH37 deubiquitinase, primary screen, biochemical, Ub-AMC cleavage, fluorescence. Ubiquitin carboxyl-terminal hydrolase isozyme L5 (Homo sapiens), Q9Y5K5. hit rate 0.33% among 330,000. purified proteasome/UCH37. AID 588478, 2011. inhibition, % (concentration not given with the values);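 active = mean of two replicates above 20%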;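 note: 0% = compound-free wells with enzyme and 100% = wells lacking proteasome; stock transfer was 100 nL into about 20 µL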
# Target sequence (Q9Y5K5 whole entry, looked up): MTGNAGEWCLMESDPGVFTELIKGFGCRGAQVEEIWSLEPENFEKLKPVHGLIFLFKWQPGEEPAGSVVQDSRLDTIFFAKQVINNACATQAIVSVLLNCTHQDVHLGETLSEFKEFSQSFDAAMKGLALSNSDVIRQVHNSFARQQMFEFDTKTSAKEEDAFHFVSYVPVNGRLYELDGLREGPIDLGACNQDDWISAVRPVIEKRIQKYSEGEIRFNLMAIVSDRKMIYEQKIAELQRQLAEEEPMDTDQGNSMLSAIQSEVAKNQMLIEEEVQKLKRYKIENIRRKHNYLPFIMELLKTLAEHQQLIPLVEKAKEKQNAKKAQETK
#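 Signal – fluorescence, ex 355 nm, em 460 nm · System – Proteasome-bound UCH37 · Input – 0.15 nM proteasome as dispensed · Timing – 30 min preincubation with enzyme, 25 min cleavage at room temperature · Read-out basis – percent inhibition of cleavage signal versus uninhibited and no-proteasome wells · Medium – Tris-HCl pH 7.4 with ATP-MgCl2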
# ALR inh: inhibitors of human ALR sulfhydryl oxidase, primary screen, biochemical, H2O2 detection, HRP-luminol luminescence, single point | FAD-linked sulfhydryl oxidase ALR (Homo sapiens), P55789 | purified ALR, DTT oxidation | inhibition, % (no concentration beside the values) | hit rate 3.8% among 290,000;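 active = mean and each replicate at 75% or more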;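 note: stock transfer was 7.5 nL into about 7.5 µL; 0% = neutral wells and 100% = wells with inactivated enzyme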
# rRNA inh HTS: reduced GFP signal of wild-type E. coli, primary screen, bacterial rRNA inhibitor project, GFP/RFP fluorescence, OD600, single point | GFP signal change (wild-type ribosome), % (no concentration beside the values) | E. coli WT GFP vs humanized-ribosome RFP mutants, 24 h; active compounds read low; DMSO median 0, no signal -100 | AID 720706, 2013 | hit rate 1.6% among 350,000;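 active = significant combined selectivity score with lowered wild-type GFP, culture density cut under 30%, mutant RFP and density less affected; inactive = any of these conditions unmet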; note: one replicate is shown; some compounds called inactive have numbers as strong as hits
# rRNA inh HTS OD600: also measured in rRNA inh HTS; calls as there; OD600 change, %; measured here: OD600 growth;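 optical density of the mix in the first replicate; 0 = DMSO median and -100 = no signal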
# rRNA inh HTS RFP: also measured in rRNA inh HTS; calls as there; RFP signal change, %; measured here: RFP humanized mutant strains;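 first replicate; 0 = DMSO median and -100 = no signal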
# Active calls of the source: *; i = inactive; / = not tested or not shown. The list is partial; rates above refer to the full screens.
smiles	rRNA inh HTS	Ecoli growth	FGF22 binding	HNF4A DNA FP	rRNA inh HTS RFP	B2AR ag	ALR inh	UCH37 DUB inh	rRNA inh HTS OD600
COC(=O)c1c(C)oc(C)c1S(=O)(=O)NCc1cccs1	/	0.68	i	4.5	/	-1	2	2.5	/
N#CCSc1nc2c(c(=O)n1Cc1ccccc1)C1(CCCC1)Cc1ccccc1-2	/	0.74	/	0.7	/	-5	3	-1.4	/
COc1cc(NC(=O)COC(=O)/C=C/c2ccc(O)c(OC)c2)cc(OC)c1	-29*	0.67	i	-0.3	0.8*	7	-4	-13	-17*
COCCCNC(=O)c1ccc(CN2CCc3ccccc3C2)cc1	16	0.68	i	1.9	1.4	-4	1	0.3	15
O=C(O)c1ccc(N2CCS(=O)(=O)CC2)cc1	12	0.71	/	4.3	-1.1	-3	-6	4.9	10
O=C(Cn1nnc(-c2ccccc2Cl)n1)NCc1ccc2c(c1)OCO2	/	0.73	/	-1.9	/	-2	-6	1.5	/
Cc1cc(/C(N)=N/OC(=O)c2ccccc2Cl)no1	3	0.69	i	1.7	-2.9	-11	8	1.7	-20
CCCn1cc(S(=O)(=O)CC(=O)N2CCc3ccccc32)c2ccccc21	/	0.67	/	-2.6	/	-2	-7	-1.2	/
COCCn1nnnc1C(c1cc2ccc(OC)cc2[nH]c1=O)N1CCc2ccccc2C1 (stereo not drawn)	/	0.7	/	-3.7	/	6	-9	-7.6	/
Cc1nc2sccn2c(=O)c1S(=O)(=O)NCC1CCN(Cc2ccc(Cl)cc2)CC1	7	/	i	2.4	1.3	/	/	/	3
O=C1CCN(Cc2ccc([N+](=O)[O-])cc2)CCN1[C@H](CO)Cc1ccccc1	4	0.82	i	4.6	-3.0	-8	3	5.8	8
COc1ccc(C(=O)N2CCN(Cc3cc(OC)c(O)c(OC)c3)CC2)cc1OC	/	0.7	/	2.0	/	11	-2	1.5	/
Cc1c(C(=O)O)sc(=S)n1-c1ccccc1	/	0.71	/	-0.4	/	5	-5	5.8	/
CCCOC(=O)c1cccc(Nc2nc(-c3cccnc3)nc3ccccc23)c1	2	0.72	i	4.3	1.7	1	-4	-9.6	-4
COc1ccc(OC)c(C2C(C#N)=C(N)Oc3cc(C)[nH]c(=O)c32)c1 (stereo not drawn)	/	0.74	/	-1.0	/	1	-17	3.6	/
CCc1ccc2nc(N(CCCN(C)C)C(=O)c3ccc(C(=O)c4ccccc4)cc3)sc2c1	-57	0.65	i	7.0	-19	24	-22	1.8	-81
COC(=O)c1cc(C(=O)NCCN2C(=O)S/C(=C\c3cccs3)C2=O)cc([N+](=O)[O-])c1	/	0.73	/	2.9	/	-4	/	6.8	/
CC(C)CN(C)C(=O)CCc1nnc(Cc2cccc(C(F)(F)F)c2)o1	5	0.69	i	3.5	7.1	14	-3	-0.5	3
CC(=O)N1CCN(c2c(F)c(F)c(C(F)(F)F)c(F)c2F)CC1	-8	0.67	/	1.2	-12	3	/	2.1	-28
CCN(Cc1ccccc1)S(=O)(=O)c1ccc(C(=O)N2CCN(c3nc4ccccc4s3)CC2)cc1	/	0.75	/	-1.8	/	14	-11	1.3	/
COc1ccc(C(=O)N[C@H](C(=O)NCCc2ccc3c(c2)OCCO3)C(C)C)cc1	15	0.7	i	6.9	3.8	1	-18	-3.0	12
CCOC(=O)[C@H]1[C@H]2COc3ccc(C)cc3[C@@H]2N2C(=O)[C@@H](CO)NC(=O)[C@@]12C	4	/	i	-1.2	-4.4	10	-1	-0.2	2
O=C(NCCCN1CCOCC1)C1CCN(S(=O)(=O)c2c(Cl)cccc2Cl)CC1	13	0.66	i	-2.5	-0.4	-1	-24	1.7	12
C=C(C)CNC(=S)N/N=C/c1ccc(NC(C)=O)cc1	2	/	i	-3.3	-6.7	-10	22	/	3
CC1(C(=O)NS(=O)(=O)c2cccc(Cl)c2)CCN1C(=O)Cc1ccsc1 (stereo not drawn)	16	/	i	1.1	-3.0	/	/	/	10
COc1ccc(C2CC(=O)NC3=C2C(=O)CCC3)cc1Cl (stereo not drawn)	/	0.66	/	-0.3	/	13	-6	1.8	/
COc1ccccc1CNC(=O)c1cc(-c2cc(Cl)ccc2C)n[nH]1	-5	/	i	0.6	2.3	/	/	/	-5
COc1cccc(C(=O)NNC(=O)c2sccc2-n2cccc2)c1	6	0.67	i	-0.5	3.6	-2	4	-0.2	5
O=C(NNc1nc2ccccc2nc1C(F)(F)F)c1ccccc1	/	0.76	/	-0.1	/	2	98*	1.8	/
CCOC(=O)[C@H]1[C@H]2COc3ccc(C)cc3[C@@H]2N2C(=O)CN(C)C(=O)[C@@]12C	0	/	i	2.1	2.5	-2	/	/	9
CC(Oc1ccc(Cl)cc1Cl)C(=O)NN=C1CCN(C)CC1 (stereo not drawn)	/	0.68	/	0.2	/	-4	22	2.8	/
COc1ccc(-n2nnc3c(SCC(=O)N4CCCc5ccccc54)ncnc32)cc1	-10	0.69	i	2.1	-4.0	7	-4	1.3	-3
CCOC(=O)C1CCN(C(=O)c2cccnc2)CC1	/	0.65	/	-3.9	/	-9	-4	0.0	/
CCOc1ccccc1-c1nc(CN(Cc2cnn(C)c2)C(C)C)c(C)o1	6	0.67	i	1.7	-0.7	2	4	-6.8	10
Cc1c(C(=O)N2CCOCC2)c(S(=O)(=O)Nc2ccc(C(C)C)cc2)c(C)n1C	11	0.7	i	-5.5	1.9	-3	-2	-1.9	8
O=C(CSc1nnc2ccccn12)NCCc1ccc(Cl)cc1	2	0.74	i	0.3	0.8	-2	-8	1.2	-2
Cc1ccc([N+](=O)[O-])cc1N(CC(=O)NC1CCCC1)S(C)(=O)=O	22	0.67	/	2.4	1.5	5	-8	1.7	20
CCCCC(C(=O)NC(=O)NCc1ccccc1)N1C(=O)c2ccccc2C1=O (stereo not drawn)	/	0.72	/	2.4	/	-8	-4	0.1	/
CCN(CC)C(=O)[C@H]1CC(CC(=O)NCC23CC4CC(CC(C4)C2)C3)C(=O)N2CCc3c([nH]c4ccccc34)[C@]12C (stereo partly drawn)	1	/	i	-1.0	2.5	-4	/	/	2
CCCCn1c(=O)cc(C)n(-c2ccccc2)c1=O	8	0.7	i	-4.1	0.4	-3	-6	-0.5	7
COc1ccc(S(=O)(=O)NCC(=O)N(Cc2ccco2)C(C(=O)NC(C)(C)C)C(C)C)cc1 (stereo not drawn)	0	0.67	i	4.1	-3.1	13	-1	-0.5	-1
COc1ccc(-n2c(O)c(/C=N/NS(=O)(=O)c3cc(C)ccc3C)c3ccccc3c2=O)cc1OC	/	/	/	147	/	-861	55	-6.0	/
O=C1COc2ccc(C(=O)c3ccccc3)cc2CN1	/	0.7	/	-1.9	/	-14	-1	3.7	/
CCCC(=O)Nc1ccccc1N1CCN(C(=O)C(C)C)CC1	/	0.76	/	2.5	/	-2	-8	0.1	/
Cc1ccc(NC(=O)N2CCC(c3nc4c(nnn4Cc4c(F)cccc4Cl)c(=O)[nH]3)CC2)cc1	-33*	0.65	i	-1.0	-4.3*	5	-5	1.3	-19*
Cc1ccc(Cl)cc1NC(=O)COc1ccccc1	7	0.64	i	0.0	8.4	-19	3	-2.2	11
CCOC(=O)/C(C#N)=C/c1c(Oc2cccc(C)c2)nc2ccccn2c1=O	10	0.64	i	3.0	1.8	7	1	2.4	1
CCC1CCC(c2nnc(-c3ccc(Br)cc3)o2)CC1 (stereo not drawn)	1	0.72	i	-2.2	-3.0	-1	-23	3.2	-4
Oc1ccccc1CNCCCN1CCOCC1	23	0.65	i	-1.4	3.2	11	4	-0.2	12
O=C(CCC(=O)c1cccs1)Nc1ccc(F)c(F)c1F	/	0.73	/	2.5	/	-4	6	-1.7	/
COc1ccc(CCN2CC(C#N)=C3c4cc(OC)c(OC)cc4CCN3C2)cc1OC	-1	0.65	i	5.0	-2.8	-1	/	-0.1	0
CCC(=O)Nc1cc2c(C)cc(=O)oc2cc1C	/	0.72	/	4.1	/	3	-5	-22	/
C=CCn1c(COc2ccc(F)cc2)nnc1SCC(=O)NC(=O)NCc1ccco1	/	0.67	/	-12	/	-3	-6	2.9	/
CCN1CCN(c2nc3ccccn3c(=O)c2/C=C(\C#N)S(=O)(=O)c2ccccc2)CC1	6	0.61	i	3.1	1.7	4	/	-9.3	4
COCCn1c(-c2ccc(Br)cc2)csc1=Nc1cccnc1	-19	/	i	-3.7	-6.1	0	-24	/	-5
CCOC(=O)c1nn(-c2ccc(C)cc2)c(=O)c2c(N)scc12	/	0.7	/	-3.2	/	5	-116	3.2	/
NS(=O)(=O)c1cccc(NC(=O)COC(=O)CCC(=O)c2cccs2)c1	21	0.62	i	1.8	3.6	-8	-2	1.4	14
Cn1c(SCc2ccccc2)nnc1-c1ccncc1	13	0.67	i	6.3	-6.1	3	/	-3.5	16
O=C(CCN1CCN(c2ccccc2)CC1)Nc1ccccc1	8	0.65	i	-2.7	-0.5	7	34	2.0	10
CC1(C(=O)NS(=O)(=O)c2cccc(Cl)c2)CCN1C(=O)CC1CC1 (stereo not drawn)	27	/	i	1.8	3.3	/	/	/	22

# The results go on:
smiles	rRNA inh HTS	Ecoli growth	FGF22 binding	HNF4A DNA FP	rRNA inh HTS RFP	B2AR ag	ALR inh	UCH37 DUB inh	rRNA inh HTS OD600
COCCn1c(SCC(=O)Nc2nnc(C)s2)nnc1-c1ccco1	17	0.7	i	-1.4	1.3	-8	-26	1.6	5
COc1ccc(CC(=O)Nc2ccc(-c3cn4ccccc4n3)cc2)cc1	/	0.73	/	-0.4	/	93*	-3	-2.8	/
O=C(CN1CCN(c2ccccc2)CC1)Nc1ccc(F)cc1	-1	0.65	i	3.9	-1.5	-3	/	2.8	-2
O=C(O)CC1(CC(=O)N2CCC(C(=O)O)CC2)CCCC1	11	0.7	i	2.3	0.9	4	0	3.9	9
Cc1cccc(NC(=O)c2ccc(N(C)C3CCCCC3)c([N+](=O)[O-])c2)n1	/	0.65	/	-1.1	/	7	-9	1.2	/
OC(Cn1cncn1)(c1ccccc1)c1ccccc1	/	0.76	/	1.1	/	5	-6	2.5	/
Cc1ccc(NC(=O)NNC(=O)c2ccc3c(c2)NC(=O)C(C)(C)O3)cc1	-4	0.7	i	-3.3	-2.3	-4	/	3.5	11
Cc1[nH]c(=O)[nH]c(=O)c1N1CCOCC1	2	0.68	i	4.2	-4.2	2	0	1.8	-5
CCc1ccc(NC(=O)NCCN2CCN(c3ccc(OC)cc3)CC2)cc1	0	0.6	i	1.4	5.4	-5	16	3.5	3
CNc1ccc(Oc2nc([N+](=O)[O-])nn2C)cc1	4	0.72	i	-2.0	-0.3	1	24	1.9	13
